miR-21 FLuc: miR-21 reporter, rising signal; AID 2288; 340,000 tested, under 10 active; Potency, µM (highest dose often 38.3 µM), for inactives: at the top dose reporter change, positive = more light; HeLa miR-21 FLuc reporter, luciferase, 48 h; active = well fitted rising curve with a large enough effect; inconclusive = small, poorly fitted or top-dose-only effect; inactive = no such curve, though single readings can be large or run the other way;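 also: % of control where 0% means no effect; miR-21 action dims this reporter so a rising signal means less miR-21 action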
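HeLa cells stably expressing CMV-driven firefly luciferase with a downstream miR-21 binding sequence, endogenously expressing miR-21, were treated with titrations (up to about 40uM final) for 48 hours at 37 degree Celsius. Luciferase luminescence was read after lysis.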
The depositor's hits bear a star; ? = inconclusive. These rows are one share of the data (hit frequency here may not be typical).

SMILES	miR-21 FLuc
CCC(=O)Nc1ccc(C)cc1-c1nc2ccccc2n(C(C)C(=O)Nc2ccccc2CC)c1=O (stereo unspecified)	13.7%
Cn1c(=O)cc(SCC(=O)N2CCN(c3ccccc3F)CC2)c2cc(Cl)ccc21	4.0%
Cc1ccc(-c2nc3cc(C(C)C)ccc3o2)cc1NC(=O)c1cc([N+](=O)[O-])ccc1N1CCOCC1	-64.0%
Cc1ccc(CN2C(=O)c3ccccc3CC2(C)C(=O)NC2CCCCC2)cc1 (stereo unspecified)	-0.5%
O=C(NC(=S)NCc1ccccc1)c1ccc(Br)o1	-16.1%
COc1ccc(-c2cc(C)no2)cc1S(=O)(=O)NCc1cccs1	19.8%
CCCCNc1nc2c(c(=O)n(Cc3ccc(Cl)cc3)c(=O)n2C)n1C	?
COCCCNC(=O)CSc1nc(-c2cccc(F)c2)[nH]c1-c1ccccc1	18.4%
COc1ccc(OC)c2sc(N3CCN(C(=O)c4ccc5c(c4)CCCC5)CC3)nc12	-10.2%
COc1cccc(CNS(=O)(=O)c2ccc(-c3cc(C(F)(F)F)on3)s2)c1	-2.4%
COc1ccc(S(=O)(=O)NCC(c2ccc(N(C)C)cc2)N2CCCC2)cc1 (stereo unspecified)	-5.8%
O=C(CCC1N=C2c3ccccc3N=C(SCc3ccc(F)cc3)N2C1=O)NCc1cccs1 (stereo unspecified)	24.7%
O=S(=O)(Nc1ccc(Br)cc1)c1ccc2nc(-c3ccccc3)[nH]c2c1	20.2%
COc1ccc(-c2cc(C(F)(F)F)nc(SCCC(=O)Nc3ccccc3F)n2)cc1	-2.5%
CCOC(=O)Cn1c(=O)oc2cc(S(=O)(=O)N3CCN(c4cccc(Cl)c4)CC3)ccc21	5.2%
Cc1ccc(-c2nnn3c2nc(NCCc2ccccc2)c2ccccc23)cc1	-25.5%
O=C(NC1(C(F)(F)F)N=C(c2ccccc2)N(C2CCCCC2)C1=O)c1ccccc1F (stereo unspecified)	14.1%
CCc1ccccc1NC(=O)CSc1nc(-c2ccccc2OC)nc2c1Cc1c(CO)cnc(C)c1O2	2.9%
CCN(C(=O)CSc1nc2ccccc2n1CC(=O)Nc1cccc(C#N)c1)c1ccccc1	8.5%
Cc1ccc2c(c1)cc(C(=O)NCc1ccc(F)cc1)n2C	21.1%

Quoted from the listing.
COc1ccc(S(=O)(=O)NCC(c2ccc(N(C)C)cc2)N2CCCC2)cc1 (stereo unspecified) in miR-21 FLuc reads -5.8%
O=C(CCC1N=C2c3ccccc3N=C(SCc3ccc(F)cc3)N2C1=O)NCc1cccs1 (stereo unspecified) in miR-21 FLuc reads 24.7%
COc1ccc(-c2cc(C(F)(F)F)nc(SCCC(=O)Nc3ccccc3F)n2)cc1 in miR-21 FLuc reads -2.5%

Next results follow:
SMILES	miR-21 FLuc
COc1ccc(CNC(=O)c2cnn(-c3ccc(F)cc3)c2-n2cccc2)cc1	?
CCOC(=O)c1c(C)[nH]c(CCC(=O)Nc2c(C)cccc2CC)c1C	19.1%
COc1ccc(NC(=O)Cc2csc(COc3cccc(C)c3)n2)cc1OC	10.7%
CN1CCc2c(sc(NC(=O)CSc3ccc(F)cc3)c2-c2nc3ccccc3s2)C1	-2.8%
COC(=O)c1ccc(Nc2ncnc3c2cnn3C)cc1	-10.2%
CCOC(=O)N1CCc2c(sc3c2c(=O)n(-c2ccc(Cl)cc2)c(=O)n3Cc2cccc(C)c2)C1	-5.1%
COC(=O)c1ccccc1NC(=O)Cn1c(=O)n(-c2ccc(C)cc2)c(=O)c2ccccc21	18.9%
COc1ccc(OC)c(CNC(=O)c2cc3ccc4cccnc4c3[nH]2)c1	-3.0%
CCOC(=O)c1c(-c2ccccc2)oc2ccc(N(C(C)=O)S(=O)(=O)c3cc(C)ccc3C)cc12	4.4%
O=S(=O)(c1ccc(OC(F)(F)F)cc1)N1CCC(c2nnnn2-c2ccc(F)cc2)CC1	2.6%
Cc1ccc(-n2ncc(C(=O)Nc3c(Cl)cccc3Cl)c2C2CCNCC2)cc1	-3.5%
COc1ccc(S(=O)(=O)NCC(c2ccco2)S(=O)(=O)c2cccs2)cc1C (stereo unspecified)	8.7%
CCOc1ccc(CNCc2c(C(=O)O)n(Cc3ccc(OC)cc3)c3ccccc23)cc1	19.4%
CC(C)(C)OC(=O)N1CCC(c2c(C(=O)NCc3ccccn3)cnn2-c2ccc(F)cc2)CC1	-2.7%
CCN(CCCNC(=O)Cn1ncc2c([nH]c3ccccc32)c1=O)c1cccc(C)c1	-1.4%
Cc1ccc(CNC(=O)C(=O)NCC(c2ccco2)S(=O)(=O)c2cccs2)cc1 (stereo unspecified)	4.4%
COc1cccc(/C=C/c2nc(C#N)c(N3CCCCCC3)o2)c1	-6.2%
CCc1noc(C)c1C(=O)NC1CC(C)(C)Cc2c1cnn2-c1ccccc1 (stereo unspecified)	5.8%
COc1ccc2c(CNCc3ccc(C)o3)c(C(=O)O)n(Cc3ccccc3C)c2c1	-7.4%
CCN1CCN(c2cc3c(cc2F)c(=O)c(S(=O)(=O)c2ccc(OC)cc2)cn3CC)CC1	-0.1%
Cc1cccc(NC(=O)CN2C(=O)CCc3ccccc32)c1C	-0.7%
COc1ccc(CNC(=O)c2ccc(CSc3nc4ccncc4n3Cc3ccccc3F)cc2)cc1	-4.8%
CCOc1ccc(NC(=O)CSC2=Nc3ccccc3C3=NC(Cc4ccccc4)C(=O)N23)cc1 (stereo unspecified)	4.4%
Cc1ccc(C(C)C)c(OCC(=O)Nc2nc3c(s2)CCCC3)c1	25.2%
COc1ccccc1NC(=O)Cn1c(C)cc(C)c(C#N)c1=O	-3.2%
CCOc1ccc(CNC(=O)c2ccc(NC(=O)c3nsc4ccccc34)cc2)cc1	-70.4%
Cc1ccc(S(=O)(=O)CC(=O)Nc2nc3c(C)cc(C)cc3s2)cc1	-2.4%
COCc1oc2ccc(NS(=O)(=O)c3ccc(C)cc3)cc2c1C(=O)OC	22.7%
CCOCCCn1c(=N)c(C(=O)NCC2CCCO2)cc2c(=O)n3cccc(C)c3nc21 (stereo unspecified)	1.8%
CCc1ccc(CNC(=O)CN2C(=O)CCn3nc(-c4cn(C)c5ccccc45)cc32)cc1	1.8%
CC(=O)c1ccc(NC(=O)C2CCN(c3nnc(C)c4c(C)n(-c5ccccc5)nc34)CC2)cc1	4.0%
CCC(C)NC(=O)CN1C(=O)c2cccnc2Oc2ccc(C)cc21 (stereo unspecified)	3.4%
COc1ccc(C)cc1N(C)C(=O)c1c(C)oc2ncnc(N3CCOCC3)c12	-11.5%
COc1ccc(-n2c(=O)c3ccccc3n(Cc3cccc(C)c3)c2=O)cc1	-8.5%
CCOC(=O)c1[nH]c2c(c1Cc1ccccc1C)C(=O)CC(c1ccccc1)C2 (stereo unspecified)	2.9%
CCOc1ccc(Cn2c(CNS(=O)(=O)c3ccc(CC)cc3)nc3cccnc32)cc1	3.4%
CCOc1ccc(CCNC(=O)c2ccc(-c3nc(CSc4ccc(C)cc4)c(C)o3)cc2)cc1	-2.1%
Cc1ccc(S(=O)(=O)c2cn(CC(=O)Nc3ccccc3)c3cc4c(cc3c2=O)OCO4)cc1	2.3%
CCOc1ccccc1NC(=O)N1CCCn2nc(C)cc21	2.3%
CCC(=O)N1c2ccccc2CC1C(=O)NCCc1ccc(OC)cc1OC (stereo unspecified)	2.0%

3 neighbouring compounds already listed:
SMILES	miR-21 FLuc
Cc1ccc(S(=O)(=O)c2cn(CC(=O)Nc3ccccc3)c3cc4c(cc3c2=O)OCO4)cc1	2.3%
CCOc1ccccc1NC(=O)N1CCCn2nc(C)cc21	2.3%
CCC(=O)N1c2ccccc2CC1C(=O)NCCc1ccc(OC)cc1OC (stereo unspecified)	2.0%

Carrying on.
SMILES	miR-21 FLuc
CCc1cc2c(cc3c(=O)n(CC(=O)N4CCCCC4)ncn32)s1	-6.9%
CCc1ccc(NC(=O)c2cc3c([nH]c2=O)CC(C)(C)CC3=O)cc1	-23.4%
COc1ccc(CNC(=O)C(C)Sc2nc(-c3ccccc3)cc(C(F)(F)F)n2)cc1 (stereo unspecified)	4.1%
CCOc1cc2sc(N3CCC(C(=O)Nc4ccccc4C(=O)OC)CC3)nc2cc1Br	-0.2%
COc1ccc(C2CC(=O)c3cc(-c4nc(-c5cccc([N+](=O)[O-])c5)cs4)c(=O)n(-c4ccccc4C)c3C2)cc1 (stereo unspecified)	3.8%
COc1ccc(C)cc1NC(=O)C1CCC(CNS(=O)(=O)c2ccc3c(c2)CCCC(=O)N3)CC1 (stereo unspecified)	28.3%
COc1ccc(NC(=O)Cn2c(=O)n(-c3cccc(C)c3)c(=O)c3c2c2cc(C)ccc2n3C)cc1Cl	2.3%
O=C(CCn1c(=O)c2cccn2c2cccnc21)N1CCN(c2ccc(F)cc2)CC1	17.9%
CC(=O)N1CCc2cc(S(=O)(=O)NC(Cc3ccccc3)C(=O)NCc3ccccc3Cl)ccc21 (stereo unspecified)	-6.5%
Cc1ccc(Nc2sc(C(=O)c3ccc(F)cc3)c(N)c2S(=O)(=O)c2ccc(C)cc2)cc1	23.6%
Cc1cccc(NC(=O)c2cc(S(=O)(=O)N3CCCCCC3)cn2C)c1C	-1.0%
O=C(CSc1n[nH]c(-c2ccccc2)n1)N1CCCCC1	-47.0%
COc1ccc(-c2cc(C(F)(F)F)c(C#N)c(SCC(=O)Nc3ccc(F)cc3)n2)cc1	-0.6%
CCC1CCC(C(=O)NC(C(=O)Nc2cccc(OC)c2)C(C)C)CC1 (stereo unspecified)	2.2%
COc1ccccc1NC(=O)Cn1c(=O)n(-c2cccc(C(C)=O)c2)c(=O)c2c3c(sc21)CN(C(C)=O)CC3	-10.1%
CCc1ccc(NC(=O)Cn2ccn(-c3ccc(C)c(C)c3)c(=O)c2=O)cc1	-3.5%
CCOC(=O)c1cccc(NC(=O)CSc2ncc3c(n2)-c2ccccc2N(C)S3(=O)=O)c1	6.2%
CCOc1ccccc1N(C)C(=O)c1cc(S(=O)(=O)NCc2ccc(C)cc2)ccc1F	?
COC(=O)c1ccc(C(=O)OC)c(NC(=O)c2cnn3c(C(F)F)cc(-c4ccc(C)cc4)nc23)c1	-1.4%
CCC(C(=O)N1CCN(c2ccc(OC)cc2)CC1)n1nc(C)n2c(cc3occc32)c1=O (stereo unspecified)	?
COc1ccc(Cn2c(C(=O)O)c(CNCc3ccc(C)o3)c3ccc(C)cc32)cc1	8.8%
Cc1ccccc1OCc1nnc(SCc2cc(=O)c3ccccc3[nH]2)n1C	17.3%
Fc1ccc(-n2ncc3c(N4CCCCCC4)ncnc32)cc1	-0.6%
CC(NC(=O)c1ccc2c(c1)N(Cc1ccc(Cl)cc1)C(=O)c1ccccc1S2(=O)=O)c1ccccc1 (stereo unspecified)	-2.0%
COc1ccc(CNC(=O)C(=O)NCC(c2cccnc2)N2CCN(c3ccccc3F)CC2)cc1 (stereo unspecified)	-1.0%
O=C(NCc1cccc(Br)c1)c1cnn(-c2ccc(F)cc2)c1-n1cccc1	2.3%
Cc1ccc(CCNC(=O)c2cc3c(s2)-c2c(C)cccc2OC3)cc1	0.5%
O=C(NCCCN1CCN(c2ccccc2)CC1)c1cc2c(s1)-c1ccccc1OC2	?
Cc1c(Cl)cccc1Nc1nn2c(=O)c3ccc(C(=O)NCCC4=CCCCC4)cc3nc2s1	13.2%
CN(CCCNC(=O)c1cc2c(=O)n(C)c3ccccc3c2s1)Cc1ccccc1	-5.7%

Five compounds picked at random from those above, as already listed:
SMILES	miR-21 FLuc
Cc1ccc(CCNC(=O)c2cc3c(s2)-c2c(C)cccc2OC3)cc1	0.5%
Cc1c(Cl)cccc1Nc1nn2c(=O)c3ccc(C(=O)NCCC4=CCCCC4)cc3nc2s1	13.2%
CC(NC(=O)c1ccc2c(c1)N(Cc1ccc(Cl)cc1)C(=O)c1ccccc1S2(=O)=O)c1ccccc1 (stereo unspecified)	-2.0%
COc1ccc(CNC(=O)C(=O)NCC(c2cccnc2)N2CCN(c3ccccc3F)CC2)cc1 (stereo unspecified)	-1.0%
O=C(NCc1cccc(Br)c1)c1cnn(-c2ccc(F)cc2)c1-n1cccc1	2.3%

The results go on.
SMILES	miR-21 FLuc
COc1ccc(NC(=O)c2ccc(-c3nc(CSc4ccc(C)cc4)c(C)o3)cc2)cc1Cl	0.5%
CCN(CC)C(=O)Cn1c(=O)n(CCc2ccccc2)c(=O)c2ccccc21	-5.0%
COc1ccc(-c2[nH]ncc2C(=O)NCc2cccc(OC)c2)cc1	-12.4%
CCOC(=O)c1c(C)[nH]c(CCC(=O)Nc2ccc(OC)c(OC)c2)c1C	-3.8%
COc1ccc(CNC(=O)c2cnc(N3CCOCC3)c3ccccc23)cc1	-2.8%
O=C(Nc1ccccc1C(=O)OCc1cc(=O)n2c3c(sc2n1)CCCC3)c1ccc(Cl)cc1	-1.0%
Cc1cccc(-c2noc(-c3ccc(NC4CCCC4)c([N+](=O)[O-])c3)n2)c1	-4.7%
O=C(c1cc2ccccc2oc1=O)N1CCN(c2ccc(Cl)cc2)CC1	-0.7%
Fc1ccc(-c2noc3ncnc(NCCc4ccccc4)c23)cc1	-0.3%
CCn1c2ccccc2c2nnc(N3CCN(c4ccc(OC)cc4)CC3)nc21	2.4%
COc1ccc(Cn2c(SCC(=O)N(C)Cc3ccccc3)nc3ccccc32)cc1	-19.8%
CCCOC(=O)c1cccc(Nc2nc(C(=O)OCC)nc3ccccc23)c1	21.7%
CC(C)Oc1ccc(CNC(=O)CN2C(=O)CCn3nc(-c4cn(C)c5ccccc45)cc32)cc1	0.0%
CCCCNC(=O)CCC1N=C2c3ccccc3N=C(SCC(=O)NCCc3ccc(OC)c(OC)c3)N2C1=O (stereo unspecified)	4.2%
CCOc1ccc(-c2cc(C(F)(F)F)c(C#N)c(SCC(=O)Nc3ccccc3)n2)cc1	-0.1%
COc1ccc(NC(=O)c2nnn(Cc3nc(-c4cc(Br)ccc4OC)oc3C)c2C)cc1	-0.6%

From PubChem BioAssay
